ClpP mod = qHTS Assay for Activators of ClpP; Potency, µM (series often up to 57.5 µM), inactives show at the top dose activity change, negative = active; hit rate 1.9% among 340,000; purified B. subtilis ClpP, FRET peptide cleavage, 20 min; AID 651965, 2013; active = well fitted falling curve with a large enough effect; inconclusive = small, poorly fitted or top-dose-only effect; inactive = no such curve, though single readings can be large or run the other way; further: the source files actives as falling curves though it sought activators and does not explain the sign; nearly all actives have a fitted effect of over 65% in size; many hits overshoot -100%
Target sequence (P80244 whole entry, looked up): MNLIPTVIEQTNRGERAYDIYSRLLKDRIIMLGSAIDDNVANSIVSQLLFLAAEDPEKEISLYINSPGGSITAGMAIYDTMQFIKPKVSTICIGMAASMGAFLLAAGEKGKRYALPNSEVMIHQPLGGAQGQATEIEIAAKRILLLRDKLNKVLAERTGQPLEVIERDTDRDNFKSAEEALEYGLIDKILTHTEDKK
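FRET quenching reversal measured ClpP activation: 10 microg/mL B. subtilis ClpP at pH 8 with the FRET-FV decapeptide, read at 430 nm after 320 nm excitation. The 20-min minus 0-min signal was scaled between DMSO/no-enzyme wells and ADEP (5.8 microM final).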
* hit, by the source's call; ? = inconclusive. Potency means the concentration at half of the fitted maximal effect. Not all compounds are listed. The share of hits here may be higher or lower than overall.

SMILES | ClpP mod
CCCn1c2ccccc2c2cnn(CC(=O)N3CCC(C(=O)OCC)CC3)c(=O)c21 | 3.9%
CCOc1ccc(CCNCc2c(C(=O)O)c(C)n(Cc3ccccc3F)c2C)cc1 | 0.3%
CC1(C)CC(=O)c2cc(C(=O)NCc3ccccc3)c(=O)[nH]c2C1 | -8.5%
CC(C)c1ccc(NC(=O)CN(C)S(=O)(=O)c2ccc3c(c2)c(=O)n(C)c(=O)n3C)cc1 | 0.6%
Cc1oc2ncn(CC(C)C)c(=O)c2c1C(=O)NCCCN1CCCCC1 | -3.5%
O=c1[nH][nH]c2c1[C@H](c1ccccc1)O[C@H](C1CCCCC1)C2 | 0.1%
COc1ccc(CCNc2nc3ccc(Cl)cc3n3cnnc23)cc1OC | 20%
Cc1ccc(NC(=O)c2cnc(N3CCCCC3)c3ccccc23)c(C)c1 | ?
Cc1ccc2c(=O)cc(C(=O)Nc3nc4ccc(Cl)cc4s3)oc2c1C | -2.2%
Clc1ccccc1-c1nnc(SCc2nc(-c3ccccc3)no2)n1-c1ccccc1 | -0.1%
COc1ccc(N2CCN(C(=O)c3cc4c(=O)n(Cc5cccs5)ccc4nc3C)CC2)cc1 | -13%
COc1ccc2c(c1)c(=O)c(C(=O)c1ccccc1)cn2CC(=O)Nc1ccc2c(c1)OCCO2 | -2.2%
COc1ccc(-c2nc(-c3ccccc3)c(-c3ccccc3)[nH]2)cc1Br | 0.6%
Cc1ccc(Cl)cc1NC(=O)CSc1ccc(C(=O)O)cn1 | -0.7%
O=S(=O)(c1ccccc1)c1nc(-c2ccccc2Cl)oc1N1CCCCCC1 | -30%
Cc1c(Cl)cccc1NC(=O)c1ccc(NC(=O)N2CCSc3ncccc32)cc1 | ?
Cc1nc(-c2ccc(S(=O)(=O)Nc3ccc(Cl)c(C(F)(F)F)c3)cc2)co1 | 0.4%
COc1ccc(NC(=O)C(=O)NCc2ccco2)c(OC)c1 | -1.2%
CC(C)(C)OC(=O)N1CCC(c2nnc(SCc3ccccc3Cl)o2)CC1 | -2.5%
CN(C)c1ccc(CNC(=O)c2ccccc2NC(=O)c2nsc3ccccc23)cc1 | 0.5%
COc1ccc(C(=O)Nc2cc(C)c(O)c(-c3nc4ccccc4s3)c2)cc1OC | -0.5%
COc1ccc2c(c1)-c1nc(NC(=O)c3cc(OC)c(OC)c(OC)c3)sc1CC2 | ?
Cc1ccccc1CNC(=O)c1c(C)oc2c1C1=NCCN1C=N2 | 2.1%
Clc1ccc(Nc2c(-c3ccccc3Cl)nc3ccc(Cl)cn23)cc1 | -7.3%
O=C1C[C@H]2C=CCc3cccc(c32)CN1Cc1ccc(Cl)cc1 | -6.3%
O=C(CCS(=O)(=O)c1nc(-c2cccs2)cc(C(F)(F)F)n1)Nc1cccc(O)c1 | 4.1%
CCOC(=O)c1cnc2ccc(OCC)cc2c1NCCc1ccc(OC)c(OC)c1 | 4.3%
Cc1ccccc1NC(=O)CSc1nc(-c2ccc(F)cc2)nc2c1Cc1ccccc1O2 | -1.0%
O=C(CCN1C(=O)c2ccccc2Sc2ncccc21)Nc1ccc(F)cc1 | -3.4%
COc1cc(CNc2ccc3c(c2)ncn3C(C)C)cc(OC)c1OC | 4.4%
COc1ccc(Nc2ncc(C(=O)Nc3ccc(F)cc3F)c3ccccc23)cc1 | 54%
O=c1c2ccccc2n(Cc2c(F)cccc2Cl)c(=O)n1CCc1ccccc1 | -1.1%
CCc1cccc(C)c1NC(=O)c1cc(C)nc2c1c(C)nn2-c1cccc(Cl)c1C | -18%
Cn1c(SCC(=O)NCc2ccco2)nnc1-c1cccc(NC(=O)c2ccccc2)c1 | 0.6%
COc1ccccc1CNC(=O)c1ccc2c(c1)N(Cc1c(F)cccc1Cl)C(=O)CS2 | -2.3%
CCc1ccccc1NC(=O)c1nnn(Cc2ccc(Cl)cc2)c1N | 3.8%
CCOC(=O)c1ccccc1NC(=O)N1CCc2c(sc(C)c2CC)C1c1ccccc1 (centres undefined) | 4.5%
COC(=O)c1ccc(CSc2nc3c([nH]c4ccccc43)c(=O)n2-c2ccc(F)cc2)o1 | ?
O=C(NCc1ccc(Cl)cc1)c1ccc2c(c1)NC(=O)C(CS(=O)(=O)Cc1ccc(F)cc1Cl)N2 (centres undefined) | 4.2%
CC1(c2nc3ccccc3[nH]2)c2ccccc2C(=O)N1C1CC1 (centres undefined) | 0.7%
COc1ccc(NC(=O)C2CCN(C(=O)N3CCOc4ccccc43)CC2)cc1 | -1.7%
Cc1ccc(-n2nc(CO)c(C(=O)NCc3ccccn3)n2)cc1C | -4.9%
Cc1ccc(OCC(=O)Nc2ccc3nc(SCC(=O)N4CCc5ccccc54)sc3c2)cc1 | -7.3%
Cc1csc(NCC(=O)c2c(C)[nH]c3ccccc23)n1 | -14%
CCN(CC)S(=O)(=O)c1ccc2oc(C(=O)Nc3cc(C)ccc3OC)c(C)c2c1 | -13%
COc1ccc(-n2ncc(C(=O)NCCCN3CCCCC3)c2C2CCN(C(=O)OC(C)(C)C)CC2)cc1 | 1.0%
CCC(=O)NCc1nc2ccccc2n1Cc1ccccc1 | -2.1%
CCN(CC)c1nn2c(=O)c(C(=O)NCCc3ccc(C)cc3)cnc2s1 | 16µM*
COc1ccc(CC(=O)NO)cc1 | -1.5%
Cc1ccc(-n2nc(C)c3nc(CCC(=O)Nc4cccc(C)c4C)c(=O)n(C)c32)cc1 | -8.0%
CCc1ccc(NCc2cc3ccc(OC)cc3n(CC(=O)Nc3c(C)cc(C)cc3C)c2=O)cc1 | -5.0%
CCOC(=O)c1c(SCC(=O)Nc2nc3ccc(C)cc3s2)nc(=O)[nH]c1C | -0.8%
Cc1ccc2oc(-c3cc(NC(=O)c4ccco4)ccc3Cl)nc2c1 | -24%
CC(C)NC(=O)N1Cc2cc(C(=O)NCC(F)(F)F)nc(-c3cccc(-c4cc5ccccc5o4)c3)c2[C@@H]1CCO | 4.8%
COc1ccc(NC(=O)C(NS(=O)(=O)c2ccc3c(c2)CCCC(=O)N3)C(C)C)c(OC)c1 (centres undefined) | -2.7%
CN1CCN(C(CNC(=O)c2c(F)cccc2F)c2ccc3c(c2)OCO3)CC1 (centres undefined) | -2.5%
COc1cccc(CC(=O)Nc2c(C(=O)N3CCN(c4ccccc4F)CC3)oc3ccccc23)c1 | -15%
CCCc1nn2c(=O)cc(COC(=O)c3cccc(NC(=O)COc4ccc(F)cc4)c3)nc2s1 | -0.8%
COc1ccc(N(C(=O)c2ccccc2C)S(=O)(=O)c2ccc3c(c2)n(C)c(=O)n3C)cc1 | 0.2%
CC1CCN(C(=O)CSc2nnc(-c3ccccc3)o2)CC1 | -1.7%

Other compounds follow:
SMILES | ClpP mod
CCC1(C)CC(=O)c2c(ccc3oc(C(=O)Nc4ccc(C(C)=O)cc4)c(C)c23)O1 (centres undefined) | 29%
CN(Cc1ccccc1)C(=O)c1cc(-c2cccc(Cl)c2)on1 | -0.7%
Cn1c(=O)nc2n(-c3ccc(Cl)c(Cl)c3)c3cc(Cl)ccc3cc-2c1=O | ?
COc1ccc(NC(=O)NCc2c(-n3cccc3)sc3c2CCCC3)c(OC)c1 | 2.1%
Cc1ccc(NC(=O)Cc2ccc(NC(=O)N3CCCCc4ccccc43)cc2)cc1 | -0.1%
CCN1C(=O)c2ccccc2Sc2ccc(NC(=O)c3ccc(Cl)cc3)cc21 | -10%
Cc1ccc(CNC(=O)CNS(=O)(=O)c2cccs2)cc1 | -5.0%
Clc1ccc(CSc2nc3ncccc3[nH]2)cc1 | -3.5%
Cc1sc2ccccc2[n+]1CCc1ccccc1 | -5.2%
Cc1ccc(-c2cc(-c3ccccc3)c(C#N)c(SCC(O)CS(=O)(=O)Cc3ccccc3)n2)cc1 (centres undefined) | 4.0%
O=C(Nc1ccccc1C(F)(F)F)C1CCN(S(=O)(=O)Cc2ccccc2)CC1 | 0.6%
CCN1CCc2nc3sc(C(=O)c4ccccc4)c(N)c3cc2C1 | -5.7%

Other structures
Compound	ClpP mod
Cc1c(-c2ccc(Cl)cc2)c(=O)oc2c(CN3CCCC3)c(O)ccc12	4.0%
CCNC(=O)c1c(NC(=O)c2nc(S(=O)(=O)CC)ncc2Cl)sc2c1CCCC2	1.0%
CN(C)c1ccc(C(=O)Nc2sc(Nc3ccccc3)nc2C(N)=O)cc1	4.3%
CCCCOCCCNC(=O)C[C@@H]1C[C@@]2(C(=O)OCC)CCCC=C2N(CCC2=CCCCC2)C1=O	-3.0%
COc1cc(C2Nc3ccccc3-c3cc(C)nn32)ccc1O (centres undefined)	32µM*
CC1(C)N=C(SCc2ccc(Cl)cc2)c2ccccc2N1	-27%
C1=Cc2ccccc2/C1=C/c1ccc2c(c1)OCO2	-0.6%
CCCNc1nc(Nc2ccc([N+](=O)[O-])cc2)nc(N2CCOCC2)n1	2.4%
Cc1cccc(C(=O)Nc2cccc(OCc3cc(=O)n4c(C)csc4n3)c2)c1	-4.6%
CCOc1ccc(-n2c(=O)c3c(C)c(C)sc3n(CC(=O)Nc3ccc(CC)cc3)c2=O)cc1	-1.4%
Nc1c(C(=O)NCc2ccccc2)nnn1Cc1cccc(Br)c1	-5.0%
COc1ccccc1Cc1nc2ccccc2nc1SCC(=O)Nc1ccccc1C(F)(F)F	4.2%
CCCNC(=O)C1CCN(Cc2cc3ccccc3n2Cc2ccccc2)CC1	-5.6%
COC(=O)c1ccc(Oc2nc3c(c(=O)n(C)c(=O)n3C)n2C(C)C)cc1	1.0%
CC1CCC(NC(=O)c2ccc(CS(=O)(=O)c3cccc(C(F)(F)F)c3)o2)CC1 (centres undefined)	1.2%
Cc1ccc(C)c(NC(=O)CN2C(=O)CSc3nc(C)cc(C)c32)c1	-1.5%

3 compounds drawn at random from those above:
Compound	ClpP mod
COC(=O)c1ccc(Oc2nc3c(c(=O)n(C)c(=O)n3C)n2C(C)C)cc1	1.0%
Nc1c(C(=O)NCc2ccccc2)nnn1Cc1cccc(Br)c1	-5.0%
CCOc1ccc(-n2c(=O)c3c(C)c(C)sc3n(CC(=O)Nc3ccc(CC)cc3)c2=O)cc1	-1.4%

Other records.
Compound	ClpP mod
CCOc1ccc(N2C(=O)CS(=O)(=O)C23C(=O)N(Cc2cccc(Cl)c2)c2ccccc23)cc1 (centres undefined)	0.9%
C[C@H]1COc2cc(N(C)CCO)ccc2S(=O)(=O)N1	-3.0%
Cc1coc2c(C)c3oc(=O)c(CC(=O)NCc4ccccc4)c(C)c3cc12	?
O=S(=O)(NCC(c1ccco1)N1CCOCC1)c1cc(F)ccc1F (centres undefined)	0.2%
Cc1ccccc1CC1C(=O)Nc2ccc(Br)cc21 (centres undefined)	4.5%
COc1ccc2c(c1)c1c(c(=O)n(-c3ccccc3C)c(=O)n1Cc1ccccc1C)n2C	?
CC(=O)c1ccc(NC(=O)CCc2c(C)nn(-c3ccc4nncn4n3)c2C)cc1	-2.3%
CCOC1=C2CN(S(=O)(=O)c3ccc(C)cc3)C(c3ccccc3)CC2N(S(=O)(=O)c2ccccc2Cl)C(c2ccccc2)C1 (centres undefined)	-2.0%
CCOc1ccc(-n2c(C)nc3cc(C(=O)NCCC4=CCCCC4)ccc32)cc1	-2.5%
Cc1nn(C(=O)c2cccc([N+](=O)[O-])c2C)c(C)c1S(=O)(=O)N1CCOCC1	0.6%
CCOc1ccc(NC(=O)C(=O)NCCc2csc(-c3ccc(C)cc3)n2)cc1	2.5%
CN1C(=O)C2(c3ccccc31)N(c1ccc(Br)cc1)C(=O)CS2(=O)=O (centres undefined)	1.2%
O=C(NCc1cccc(Cl)c1)c1c2c(nc3ccccc13)C(=O)N(C1CCCCC1)C2	-3.5%
CC(C)CC(NS(=O)(=O)c1ccc2c(c1)oc(=O)n2C)C(=O)NCCc1ccc(Cl)cc1 (centres undefined)	-0.5%
O=[N+]([O-])c1ccc(F)c(CN2CCN(c3ncc(Cc4ccccc4)cn3)CC2)c1	0.8%
Cc1cc(C)c(S(=O)(=O)Nc2ccc3oc4c(c3c2)CCCC4)cc1C	-1.0%

7 structures out of the list, sorted by SMILES length, highest first:
Compound	ClpP mod
CC(C)CC(NS(=O)(=O)c1ccc2c(c1)oc(=O)n2C)C(=O)NCCc1ccc(Cl)cc1 (centres undefined)	-0.5%
Cc1nn(C(=O)c2cccc([N+](=O)[O-])c2C)c(C)c1S(=O)(=O)N1CCOCC1	0.6%
O=[N+]([O-])c1ccc(F)c(CN2CCN(c3ncc(Cc4ccccc4)cn3)CC2)c1	0.8%
O=C(NCc1cccc(Cl)c1)c1c2c(nc3ccccc13)C(=O)N(C1CCCCC1)C2	-3.5%
CC(=O)c1ccc(NC(=O)CCc2c(C)nn(-c3ccc4nncn4n3)c2C)cc1	-2.3%
CCOc1ccc(-n2c(C)nc3cc(C(=O)NCCC4=CCCCC4)ccc32)cc1	-2.5%
Cc1cc(C)c(S(=O)(=O)Nc2ccc3oc4c(c3c2)CCCC4)cc1C	-1.0%

The listing continues:
Compound	ClpP mod
COc1cc(NC(=O)Cn2cnc3sc(C)c(S(=O)(=O)N4CCC(C)CC4)c3c2=O)cc(OC)c1OC	-1.0%
Cc1cn2c(=O)cc(COC(=O)c3cccc(NC(=O)COc4ccccc4)c3)nc2s1	23%
COc1cccc(NC(=O)c2oc3ccc(S(=O)(=O)N4CCCCCC4)cc3c2C)c1	?
Cc1ccccc1CNC(=O)C1CCN(c2nnc(C)c3c(C)n(-c4ccccc4)nc23)CC1	-17%
Cc1ccc(C)c(N2CCN(C(=O)c3cc4c(=O)n(Cc5ccco5)ccc4nc3C)CC2)c1	-30%
CCC(C(=O)NCc1ccccc1Cl)n1nc(C)c2sc3ccccc3c2c1=O (centres undefined)	-7.1%

Assay outcomes (PubChem)
